# D2 potentiator: positive allosteric modulators of human D2 dopamine receptor. potentiation, % (concentration not given with the values). P14416. actives 0.23% (n = 360,000). DiscoveRx D2 beta-arrestin cells, luminescence, 90 min; 100% = 57 uM dopamine signal; active = potentiation of 50% or more; inconclusive = 30% to 50%; inactive = 30% or less;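 further: compound concentration not given in the record; tested on top of an EC20 dose of dopamine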
# Target sequence (P14416 whole entry, looked up): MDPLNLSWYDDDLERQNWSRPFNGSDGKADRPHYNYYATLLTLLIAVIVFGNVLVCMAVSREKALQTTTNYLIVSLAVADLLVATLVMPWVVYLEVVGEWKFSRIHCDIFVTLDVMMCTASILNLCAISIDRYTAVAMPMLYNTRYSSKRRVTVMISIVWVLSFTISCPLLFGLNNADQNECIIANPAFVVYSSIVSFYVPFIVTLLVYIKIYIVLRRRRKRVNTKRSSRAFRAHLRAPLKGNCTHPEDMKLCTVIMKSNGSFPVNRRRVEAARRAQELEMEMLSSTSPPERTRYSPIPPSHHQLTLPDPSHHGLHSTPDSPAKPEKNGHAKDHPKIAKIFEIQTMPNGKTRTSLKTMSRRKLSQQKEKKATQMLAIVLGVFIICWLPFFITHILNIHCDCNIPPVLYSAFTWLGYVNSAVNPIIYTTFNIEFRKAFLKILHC
#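 D2 cells co-treated with compound plus 50 nM dopamine (EC20) for 90 min at 37 deg C to detect potentiation. Beta-arrestin recruitment was read as enzyme-fragment luminescence after 1 h at ambient temperature. Full response was set by 57 uM dopamine.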
# TRPV1 potentiator: enhances activation of the human vanilloid receptor TRPV1; Q8NER1; actives 0.02% (n = 320,000); potentiation, % at 8.33 µM; TRPV1-expressing cells, Fluo-8 calcium influx, capsaicin EC20 potentiation; host cell line not named in the record; control for the full effect not named in the record; active means potentiation above 80%; inconclusive means 30% to 80%; inactive means below 30%; further: 0% is about no effect
#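 TRPV1-expressing cells were cultured overnight at 35.5C and loaded with Fluo-8 calcium dye for 40 to 90 min at room temperature. After a 10 s baseline, compound was added and calcium influx was read kinetically for 3 min (ex 480/em 520 nm).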
# Six1-Eya2 blk: blocks human Six1 binding to Eya2. Q15475+O00167. AlphaScreen GST-Six1/His-Eya2 binding, biochemical; active compounds read low; control for the full effect not named in the record. activity change, % (no concentration beside the values). actives 0.56% (n = 360,000); in the data active = activity change below about -65%; inconclusive = about -30% to -65%; inactive = above about -30%; further: on the % scale 0 is the no-effect control and ±100 the full control effect
#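 GST-Six1 + His-Eya2 (5X stock: 250/500 nM); Tris pH 8.0, 300 mM NaCl, 0.05% BSA, 0.02% Tween 20; GSH donor/Ni acceptor beads; 1 h 37 °C dark; AlphaScreen readout.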
# TRPML1 inh: inhibitors of human TRPML1 channel; Q9GZU1; TRPML1-inducible cells, Ca2+ dye fluorescence, FDSS; active compounds read low; inhibition of EC80 agonist-evoked calcium signal; activity change, negative = inhibition, % (test concentration not listed); actives 0.02% (n = 390,000); AID 624415; in the data active means activity change below about -50%; inconclusive means about -30% to -50%; inactive means above about -30%;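 further: stimulus is agonist 54-4 at its EC80 concentration; on the % scale 0 is the no-effect control and ±100 the full control effect; compound concentration not given in the record; the text of the record puts the active cut at -80%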
# Target sequence (Q9GZU1 whole entry, looked up): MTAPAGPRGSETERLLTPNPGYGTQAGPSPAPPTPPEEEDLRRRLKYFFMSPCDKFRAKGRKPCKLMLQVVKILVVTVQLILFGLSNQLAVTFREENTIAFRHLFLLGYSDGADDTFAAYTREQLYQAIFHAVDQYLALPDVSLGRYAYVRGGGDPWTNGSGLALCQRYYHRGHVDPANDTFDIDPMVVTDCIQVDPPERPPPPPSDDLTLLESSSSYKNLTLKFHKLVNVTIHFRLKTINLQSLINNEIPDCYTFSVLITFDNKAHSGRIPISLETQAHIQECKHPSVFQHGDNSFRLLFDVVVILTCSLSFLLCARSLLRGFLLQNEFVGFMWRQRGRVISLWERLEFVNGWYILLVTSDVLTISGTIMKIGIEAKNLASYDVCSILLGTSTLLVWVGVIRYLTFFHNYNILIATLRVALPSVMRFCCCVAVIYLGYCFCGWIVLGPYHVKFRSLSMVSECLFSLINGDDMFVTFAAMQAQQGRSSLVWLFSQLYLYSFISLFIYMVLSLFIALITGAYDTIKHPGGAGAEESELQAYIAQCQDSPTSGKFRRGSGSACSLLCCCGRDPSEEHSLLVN
#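 TRPML1-DL cells, Tet-induced overnight (~16 h, 37 °C) at 1,500 cells/well, were loaded with Ca8 no-wash dye plus quencher for 45-90 min at room temperature. Compounds were pinned during FDSS kinetic reading; agonist 54-4 at EC80 (4 uM final) then added.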
# CtBP-E1A inh: CtBP/E1A binding inhibition. actives 0.49% (n = 340,000). AlphaScreen GST-E1A/His-CtBP binding, 1536-well; active compounds read low; control for the full effect not named in the record. activity change, % (concentration not given with the values); in the data active means activity change below about -65%; inconclusive means about -30% to -65%; inactive means above about -30%; further: on the % scale 0 is the no-effect control and ±100 the full control effect
#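 Protein mix (5X: 125 nM each GST-E1A, His-CtBP) was incubated with pinned compound 2 h at 37 deg C in dark, in 50 mM Tris pH 8.0 buffer with 300 mM NaCl. Glutathione donor and nickel acceptor beads followed; AlphaScreen signal read after 1 h.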
# TRPML1 agonist: agonists of human TRPML1 channel | Q9GZU1 | TRPML1-expressing cells, Ca2+ dye fluorescence, FDSS; host cell line not named in the record; reference of the full effect not given here | activation, % (no concentration beside the values) | actives 0.12% (n = 410,000) | AID 624414; in the data active = activation above about 50%; inconclusive = about 30% to 50%; inactive = below about 30%; further: 0% is about no effect; the text of the record puts the active cut at 80%
#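 Agonist activity was taken from a 110 s kinetic Ca2+ dye read on the FDSS after pinning compounds onto TRPML1-DL cells. The cells were seeded at 1,500/well with Tet inducer, incubated about 16 h, then dye-loaded at room temperature.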
# Starred values were filed as active, the others as inactive; ? = inconclusive; . = no result given; & = joins results of further samples.
# Below each compound: Six1-Eya2 blk	CtBP-E1A inh	TRPML1 agonist	D2 potentiator	TRPV1 potentiator	TRPML1 inh
CC(C)C#Cc1ccc2c(c1)O[C@@H](CN(C)C(=O)c1cnccn1)[C@@H](C)CN([C@@H](C)CO)S2(=O)=O
 : 4	-4	-0.8	-1	.	5
COc1ccc(N2CCN(C(=O)CSc3nnc(Cn4nnc5ccccc54)n3C)CC2)cc1
 : 0	0	0.3	-8	-6	-1
CC(C)C[C@@H](C(=O)NC1CCN(Cc2ccccc2)CC1)N1C(=O)N2CCc3c([nH]c4ccccc34)[C@@]2(C)C1=O
 : ?	-26	.	-83	4	.
CN(c1ccc(C(=O)N2CCOCC2)cc1)S(=O)(=O)c1cccs1
 : 3	0	0.2	0	-7	-25
COc1ccc(C(=O)C2CCCN(Cc3cccn3-c3ccccn3)C2)cc1F (centres undefined)
 : -4	-3	-0.2	-3	13	2
Cc1ccc(C)c(OCc2cc(C(=O)NC(C)c3cnn(C)c3)no2)c1 (centres undefined)
 : 0	-5	-0.5	-6	-28	2
COc1ccc(C(=O)Nc2cnn(Cc3c(F)cccc3Cl)c2)cc1OC
 : 0	-8	0.6	3	-7	-6
CCc1c(C)nc2ncnn2c1N1CCN(S(=O)(=O)c2ccc(OC)cc2)CC1
 : 14	-19	0.7	3	1	-16
Cc1cc(SCC(=O)OCC(=O)NC(C)c2ccccc2)c(C)cc1Br (centres undefined)
 : -2	-7	0.9	-25	-2	-14
Cc1ccccc1CN1CCC(n2nccc2NC(=O)CCCc2ccccc2)CC1
 : 9	.	2.8	0	-5	-5
COc1ccc(/C=C(/NC(=O)c2ccc(C)cc2)C(=O)N2CCCC2)cc1OC
 : -1	2	-0.3	-6	7	5
CC(C)c1ccc(NC(=O)c2ccc3snnc3c2)cc1
 : -2	5	-0.5	-11	-12	-6
CC(c1nccs1)N(C)C(=O)CCc1nnc(Cc2c[nH]c3ccccc23)o1 (centres undefined)
 : 1	-2	-0.8	-9	-9	0
CN(CCOc1ccccc1)CC(=O)Nc1ccc(Cl)c(S(=O)(=O)N(C)C)c1
 : -2	0	1.2	-9	-3	23
Cc1ccc(CN2CC(C(=O)Nc3cccc(S(=O)(=O)N4CCCCC4)c3)CC2=O)cc1 (centres undefined)
 : 3	-4	0.6	-4	-4	12
Cc1cc(C)nc(NC(=NCc2ccc3c(c2)OCO3)NC(=O)Nc2ccccc2)n1
 : -15	2	2.7	-1	-16	28
Cc1c(NCc2nc3ccccc3[nH]2)c(=O)n(-c2ccccc2)n1C
 : -4	-16	-0.2	-10	14	2
O=C1CCCC2=C1C(c1cccs1)Nc1ccc3ncccc3c12 (centres undefined)
 : -14	-14	1.5	-3	3	-1
CCOC(=O)CCc1c(C)c2ccc3c(c2oc1=O)CN(CCCO)CO3
 : 8	.	0.4	-10	5	30
Cc1ccc(S(=O)(=O)N2CCCN(S(=O)(=O)c3ccc(C(F)(F)F)cc3)CC2)cc1
 : 3	3	0.7	-2	-9	16
CCOC(=O)c1ccc(N2C(=O)CC(N3CCC(C(N)=O)(N4CCCCC4)CC3)C2=O)cc1 (centres undefined)
 : 3	9	0.8	-5	1	18
CCCCCCSc1nc(O)c(C2OC(=O)c3c2ccc(OC)c3OC)c(=O)n1CC (centres undefined)
 : 5	0	-0.3	-4	4	-11
CSc1ccc(/C=N/n2c(C)cc(C)cc2=O)cc1
 : 0	1	0.5	-8	14	0
Cc1ccc(C)c(S(=O)(=O)N(C)C2(C)CCS(=O)(=O)C2)c1 (centres undefined)
 : -1	8	1.1	-3	-3	-8
Cc1cccc(-c2c3c(nc4c2c(=O)n(C)c(=O)n4C)-c2ccccc2C3O)c1 (centres undefined)
 : -21	-17	0.6	-2	.	4
CCOC(=O)C1CCCN(c2c(NCCN(C)Cc3ccccc3)c(=O)c2=O)C1 (centres undefined)
 : 7	-25	-0.2	-10	-5	-6
Oc1cccc(-c2nc3ccccc3s2)c1
 : -19	-8	2.8	-14	15	-21
CCn1c(C)c(C)c2cc(C(=O)NC3CCCCCC3)ccc21
 : -4	.	2.1	-14	-12	3
CC(NC(=O)c1ccc(CS(C)(=O)=O)cc1)C1CC2CCC1C2 (centres undefined)
 : -4	7	0.5	-11	-9	-8
COc1ccc(NC(=O)c2cc3ccccc3o/c2=N\NS(=O)(=O)c2ccc(C)cc2)cc1
 : 3	.	0.1	-6	1	2
CCOC(=O)N1CCN(CC(=O)Nc2cc(OC)c(OC)cc2C#N)CC1
 : 1	-26	-0.4	-2	-12	-19
CCN(CC)c1ncnc2c1cnn2Cc1ccc(Cl)cc1
 : 1	3	-0.1	9	-2	-9
COc1ccccc1CNC(=O)CCn1c(=O)sc2ccccc21
 : -1	-11	0.5	-16	-13	-1
S=C(NCC1CCCO1)Nc1ccccc1Cl (centres undefined)
 : 2	7	0.7	-8	-2	-1
COc1ccc(S(=O)(=O)CCC(=O)Nc2ccc(OC)cc2OC)cc1
 : 0	-5	-0.4	0	?	-10
Cc1cc(C)c(S(=O)(=O)Nc2ccc[nH]c2=O)c(C)c1
 : -7	-2	-1.2	0	14	-3
COc1ccc(OCC2NCCc3cc(OC)c(OC)cc32)cc1 (centres undefined)
 : -10	.	1.3	-14	-4	-8
CCOC(=O)C/C(=N\Nc1ncnc2ccccc12)c1ccccc1
 : -18	-15	2.8	-3	-1	11
CCc1nc2c(OCc3cc(Cl)cc(Cl)c3)cccn2c1N(C)C(=O)CC(C)C
 : -7	-15	1.4	-17	.	14
CCN(CC)CCCNC(=O)c1[nH]c(C)c(C(=O)NC2CCCCC2)c1C
 : -7	-3	-0.2	-5	4	-3
COc1ccc(-c2cc(C(F)(F)F)nc(SCCC(=O)N3CCN(C)CC3)n2)cc1
 : 2	4	.	-4	.	.
CCN1CCN(c2nc3c(C)cccn3c(=O)c2/C=C(\C#N)S(=O)(=O)c2ccc(Cl)cc2)CC1
 : -21	.	0.1	-19	-9	19
Cc1ccc(C(=O)c2c3ccc([N+](=O)[O-])cc3[n+]([O-])n2CCC(N)=O)cc1
 : -1	0	-0.1	17	17	13
COc1ccc(NC(=O)C2CCN(S(=O)(=O)c3c(C)noc3/C=C/c3cccs3)CC2)cc1Cl
 : .	.	0.9	.	-19	13
O=[N+]([O-])c1ccc(S(=O)(=O)NCCN2CCOCC2)cc1
 : -2	0	0.2	5	-3	-5
CC(C)(C)c1ccc2c(c1)OC(C(=O)N/N=C/c1ccc([N+](=O)[O-])o1)CO2 (centres undefined)
 : -4	-10	0.3	12	-10	-6
CC(N=C1NS(=O)(=O)c2ccccc21)C(=O)NCc1ccc2c(c1)OCO2 (centres undefined)
 : 11	3	-0.6	-28	10	-4
C#CCOCCOCCOCCNc1nc(N2CCN(C(=O)[C@H](CCCCN)n3cc(CCC(=O)O)nn3)CC2)nc(N2CCN(C(=O)[C@H](CCCCN)n3cc(CC(C)O)nn3)CC2)n1 (some centres undefined)
 : 2	1	-1.0	-18	?	39
Cc1ccc(NC(=O)CSc2nnc(/N=C/N(C)C)s2)cc1
 : 2	-13	-0.8	-4	-32	-8
O=C(CN(C(=O)C1CSC(=O)C1)c1ccc(F)cc1)NCc1ccc2c(c1)OCO2 (centres undefined)
 : 7	22	0.5	-9	-12	7
Cc1ccc(S(=O)(=O)N2CCC(=O)N(C(COCc3ccc(C(F)(F)F)cc3)C(C)C)CC2)cc1 (centres undefined)
 : 4	0	8.8	1	-7	1
COc1cccc(C2CC(c3ccccc3)Nc3ncnn32)c1 (centres undefined)
 : 1	5	0.4	-1	6	-5
COC(=O)c1ccc2c(=O)n(CC3CCCO3)c(SCC(=O)NCCc3ccc(S(N)(=O)=O)cc3)nc2c1 (centres undefined)
 : -4	11	-0.1	-3	6	-15
COc1ccc(Cl)cc1NC(=O)c1cc(-c2ccc(C)cc2O)n[nH]1
 : -7	7	-0.8	-3	15	27
CSCC[C@H](NC(=O)C(C)Oc1ccc(Cl)cc1)c1nc2ccccc2[nH]1 (some centres undefined)
 : -9	-3	-0.7	-15	-16	3
Cc1cc(NC(=O)CSc2nc3c(cc2C#N)CCC3)no1
 : -14	-3	-0.7	-4	8	-2
Cc1ccc(CNC(=O)C2CCN(S(=O)(=O)c3cccc4nonc34)CC2)cc1
 : 10	0	-0.6&-0.5	4	15	-8&-13
CCS(=O)(=O)c1ncc(Cl)c(C(=O)Nc2ccc(S(=O)(=O)N3CCCC(C)C3)cc2)n1 (centres undefined)
 : 19	-4	3.3	-12	9	10
Cc1ccc(-c2csc3nnc(SCc4csc(C)n4)n23)cc1
 : 1	3	2.3	-7	-18	10
CCOC(=O)Nc1cccc(Nc2ccccc2)c1
 : -4	-11	1.8	-1	9	1

# (more compounds)
# Below each compound: Six1-Eya2 blk	CtBP-E1A inh	TRPML1 agonist	D2 potentiator	TRPV1 potentiator	TRPML1 inh
CC1CC(C)CN(CCCNC(=O)c2cc3c(s2)-c2ccccc2OC3)C1 (centres undefined)
 : 9	7	1.7	-27	3	-2
CCCc1nnc(NC(=O)C2CCCO2)s1 (centres undefined)
 : 27	44	-0.5	-16	4	-1
C[C@@H](CN1CCC(Cc2ccccc2)CC1)[C@@H](O)c1ccc(O)cc1
 : -9	-8	0.1	6	-7	1
CCOC(=O)c1ccc2[nH]c3c(c2c1)CCCC3
 : -16	.	2.5	-3	-2	-6
Cc1ccc(NCN2C(=O)C3CC=CCC3C2=O)cc1 (centres undefined)
 : -1	3	-0.5	-4	6	-11
CC(C)(C)c1ccccc1NC(=S)NC1CCCC1
 : -3	-9	1.0	-15	-19	3
O=C(O)c1sccc1S(=O)(=O)N1CCN(c2ccc(C(F)(F)F)cn2)CC1
 : 7	-2	-0.3	-4	?	10
CSCCC(NC(C)=O)C(=O)Oc1ccc2c3c(c(=O)oc2c1)CCCC3 (centres undefined)
 : -5	-16	0.6	-15	6	6
CNCC(=O)O
 : 0	3	0.0	-14	-4	-4
Cn1c(=O)c2c(SCC(=O)Nc3ccccc3F)nc(C3CC3)nc2n(C)c1=O
 : 5	3	0.3	-7	11	-7
CCOC(=O)CSc1nnc(-c2ccc(S(=O)(=O)N3CCOCC3)cc2)n1-c1ccccc1
 : 1	1	-0.5	-2	18	1
O=c1c(Cc2ccccc2)c(O)nc2n1CCS2
 : 3	3	0.2	-2	0	-12
O=C(NNC(=O)c1ccc(F)cc1)c1ccncc1
 : 1	.	.	12	18	.

# Bioassay records from PubChem.
